Source: PubChem
Ecoli growth – E. coli growth inhibition | Escherichia coli growth, OD600, 23 h; hits give low values | OD600 absorbance (no concentration beside the values) | 330,000 tested, 0.21% active;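 active means OD600 absorbance below the run mean of sample wells minus 3.6 SD, in any replicate, cut at about 0.56 in these data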;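 further: stock transfer was 300 nL into about 60 µL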
FGF22 binding – FGF22 (human) thermal shift binding; Q9HCT0; recombinant FGF22 thermal shift, SYPRO orange fluorescence; percent of sucrose octasulfate shift, DMSO zero; calls only at 9.99 µM; 340,000 tested, 1.5% active;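 active means melting point raised past a set limit in the mean and every replicate; three in four hits are not shown here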
LANA-H2B inh – blocks KSHV LANA binding to histone H2A/H2B. cell-free LANA-H2A/H2B peptide, fluorescence polarization. inhibition, % (concentration not given with the values). 320,000 tested, 0.6% active. AID 2629; in the data active means inhibition mostly above about 10%, no sharp cut-off; inactive means mostly below about 6.7%;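 further: stock transfer was 7.5 nL into about 10 µL; 0% = median of vehicle wells and 100% = median of positive control wells; one replicate is shown; the record names a cut of 25% in any replicate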
Beta2AR agonist – agonists of human beta-2 adrenergic receptor inducing internalization | Am2.2-beta2AR cells, FAP receptor internalization, flow cytometry; reference of the scale not given here | response, % (concentration not given with the values) | 340,000 tested, 0.43% active | AID 504454;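 active means response above a set limit, near 3 SD of response in nonfluorescent compounds, cut at about 42% in these data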;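 further: stock transfer was 100 nL into about 11 µL; a reference agonist was the positive control; negative values mostly stem from fluorescent compounds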
HNF4A DNA FP – change in binding of human HNF4 alpha to DNA; P41235; HNF4a-FITC DNA binding, fluorescence polarization, 1 h; activity change, % at 10 µM; 360,000 tested, 0.3% active; AID 1224865; in the data active means activity change above about 30%, passing the limit was not always enough;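 further: controls were the assay level and a saturating level of protein; the project sought stronger binding though the title names inhibitors; some compounds called inactive have numbers as strong as hits; positive values seem to mean higher polarization but the record does not say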
Target sequence (P41235 whole entry, looked up): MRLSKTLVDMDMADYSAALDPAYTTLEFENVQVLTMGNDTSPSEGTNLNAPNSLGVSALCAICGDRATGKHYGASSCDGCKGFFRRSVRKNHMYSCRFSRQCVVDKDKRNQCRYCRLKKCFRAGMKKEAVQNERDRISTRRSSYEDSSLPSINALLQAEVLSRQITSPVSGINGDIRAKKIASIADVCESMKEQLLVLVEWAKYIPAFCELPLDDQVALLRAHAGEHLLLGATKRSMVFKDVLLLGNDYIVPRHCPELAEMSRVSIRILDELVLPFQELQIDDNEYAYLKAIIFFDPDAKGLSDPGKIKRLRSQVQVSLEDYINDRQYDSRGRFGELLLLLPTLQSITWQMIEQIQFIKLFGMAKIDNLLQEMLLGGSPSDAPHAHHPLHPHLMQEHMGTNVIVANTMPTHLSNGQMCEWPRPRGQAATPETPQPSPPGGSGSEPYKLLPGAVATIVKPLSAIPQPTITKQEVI
ALR H2O2 inh – blocks human ALR sulfhydryl oxidase activity; purified ALR, DTT oxidation, H2O2 HRP-luminol luminescence; AID 485317; 290,000 tested, 3.8% active; inhibition, % (no concentration beside the values);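 active means mean and each replicate at 75% or more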;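 further: stock transfer was 7.5 nL into about 7.5 µL; 0% = neutral wells and 100% = wells with inactivated enzyme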
Target sequence (P55789 whole entry, looked up): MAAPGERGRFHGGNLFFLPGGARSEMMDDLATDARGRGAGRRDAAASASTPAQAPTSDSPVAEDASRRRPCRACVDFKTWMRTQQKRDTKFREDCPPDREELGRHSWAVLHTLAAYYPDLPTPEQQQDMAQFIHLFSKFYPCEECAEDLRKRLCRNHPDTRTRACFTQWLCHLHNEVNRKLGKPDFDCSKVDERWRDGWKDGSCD
UCH37 inh – human UCH37 deubiquitinating enzyme inhibition. inhibition, % (test concentration not listed). purified proteasome/UCH37, Ub-AMC cleavage fluorescence. 330,000 tested, 0.33% active. Q9Y5K5;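 active means mean of two replicates above 20%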;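 further: 0% = compound-free wells with enzyme and 100% = wells lacking proteasome; stock transfer was 100 nL into about 20 µL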
Target sequence (Q9Y5K5 whole entry, looked up): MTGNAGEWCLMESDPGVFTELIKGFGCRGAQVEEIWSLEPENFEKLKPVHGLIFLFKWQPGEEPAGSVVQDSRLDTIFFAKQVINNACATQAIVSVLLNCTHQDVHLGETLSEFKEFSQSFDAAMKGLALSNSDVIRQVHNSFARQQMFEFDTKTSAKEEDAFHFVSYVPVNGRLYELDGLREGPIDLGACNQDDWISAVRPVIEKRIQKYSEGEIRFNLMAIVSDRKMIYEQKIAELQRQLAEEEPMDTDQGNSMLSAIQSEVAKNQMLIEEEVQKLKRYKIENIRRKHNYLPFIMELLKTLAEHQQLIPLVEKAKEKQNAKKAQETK
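Test system – human UCH37 enzyme supplied as purified proteasome complex · Incubation – 30 min preincubation with enzyme, 25 min cleavage at room temperature · Detection – AMC fluorescence from Ub-AMC cleavage, excitation 355 nm, emission 460 nm · Benchmarks – no-proteasome wells (full inhibition) and compound-free wells (no inhibition)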
The depositor's hits bear a star; i = inactive; · = no result given. These rows are one share of the data; rates above refer to the full screens.

No.	structure	Ecoli growth	FGF22 binding	LANA-H2B inh	Beta2AR agonist	HNF4A DNA FP	ALR H2O2 inh	UCH37 inh
1	C=CCn1c(CNC(=O)c2ccco2)nnc1SCC(=O)c1ccc(F)cc1	0.7	i	3.1	-5	0.9	30	2.3
2	Cc1cc(C)cc(NC(=O)Nc2cccc(S(N)(=O)=O)c2)c1	0.63	i	1.5	2	1.2	-3	5.2
3	C=CCN=C(NC#N)SCC(=O)NCc1ccccc1	0.68	·	4.4	4	4.4	·	0.9
4	C=CCn1c(SCC(=O)Nc2ccc(C(=O)O)cc2)nc2sc(C)c(C)c2c1=O	0.69	i	·	9	2.7	·	2.8
5	COC(=O)c1ccc(Sc2ccccc2NS(=O)(=O)c2ccc(C)cc2)nc1	0.72	·	-3.2	-4	-0.8	-14	1.4
6	Cc1cccnc1NC(=S)Nc1ccc(Br)cc1Cl	0.68	i	1.2	-9	2.1	-25	0.9
7	COc1ccc(/C=N/NC(=S)NCCc2ccccc2)cc1	·	i	-6.7	6	0.5	-1	·
8	O=C(CC1C(=O)NCCN1C(=O)Nc1ccccc1)Nc1cc(Cl)ccc1Cl (stereo unspecified)	0.65	i	2.9	-5	-1.3	-8	3.2
9	COCCNc1nc2ccccc2n2cnnc12	0.66	i	-3.4	-13	-0.4	0	3.5
10	Cc1[nH]c(=O)[nH]c(=O)c1S(=O)(=O)N1CCN(c2ccccc2F)CC1	0.67	·	3.5	3	2.1	-10	0.9
11	CN(/C=C/C(=C/C=[N+](C)c1ccccc1)OCCCS(=O)(=O)[O-])c1ccccc1	0.74	i	-2.6	-3	112	-27	21*
12	CCCCn1c(N)c(N(CC(C)C)C(=O)CN2C(=O)c3ccccc3C2=O)c(=O)[nH]c1=O	0.69	i	-4.2	-1	0.3	-8	4.3
13	CN1CCCC1CCNS(=O)(=O)c1ccc(Br)cc1 (stereo unspecified)	0.77	·	3.2	-10	-3.1	-3	3.1
14	CCCCOC(=O)Nc1sc2nc(C)cc(C)c2c1-n1cccc1	0.81	·	-9.1	-2	0.8	6	5.1
15	CCOc1ccccc1Nc1cc(C)nc2nc(C)nn12	0.75	i	1.9	-9	1.9	-32	2.1
16	CCOc1ccc(S(=O)(=O)Nc2ccc(C(=O)NCC3CCCO3)cc2)cc1 (stereo unspecified)	0.71	i	-5.3	-12	-1.8	-3	0.8
17	Cc1ccc(S(=O)(=O)Nc2cccc(C(=O)N3CCC(C(N)=O)CC3)c2)cc1	0.7	i	·	-2	-3.9	·	1.3
18	O=C(c1csc(Nc2ccccc2Cl)n1)N1CCCC1	0.66	·	-0.9	10	8.5	84*	3.1
19	COc1ccccc1NC(=O)c1sc2nc(N3CCOCC3)c3c(c2c1N)CCCC3	0.76	i	2.7	-1	1.1	·	-381
20	Cn1c(=O)cc(OCCCC(=O)Nc2cccnc2)c2ccccc21	0.69	·	4.8	-3	0.5	-10	4.4
21	CCc1nnc(NC(=O)c2cccnc2SC)s1	0.67	i	2.7	9	-0.8	-6	4.8
22	O=C(C[n+]1ccccc1)Nc1ccccc1C(F)(F)F	0.67	i	-1.4	0	5.3	-3	3.5
23	COc1cccc(N2CCN(Cc3cccnc3)CC2)c1	0.73	·	2.6	4	-4.6	91*	-1.1
24	CCOP(=O)(OCC)C(NC(=O)c1cccs1)C(F)(F)F (stereo unspecified)	0.65	·	0.8	0	-9.4	-6	-15
25	O=C(c1ccccc1)N1CCn2c(nc3ccccc32)C1	0.7	·	0.7	-22	-3.4	-8	-2.1
26	N#Cc1nc(COc2ccccc2Cl)oc1NCc1ccc(F)cc1	0.72	i	·	-14	0.9	·	3.6
27	Cc1cc(NC(=O)c2cccc(F)c2)ncc1NC(=O)c1ccco1	0.72	·	-3.0	-9	-1.5	3	4.8
28	CNc1nc(CCN2C(=O)c3ccccc3C2=O)cs1	0.69	·	3.7	2	0.9	8	-0.1
29	CCCn1c(=NC(=O)c2c(-c3c(F)cccc3Cl)noc2C)c(C(=O)OCC)cc2c(=O)n3ccccc3nc21	0.72	·	-2.0	·	·	-2	-83
30	Cc1cccc(N2CCN(S(=O)(=O)c3ccc(Cl)nc3)CC2C)c1 (stereo unspecified)	0.67	i	-2.1	-4	1.6	66	2.9
31	COc1ccc2nc(C)cc(Nc3ccc(C)cc3)c2c1	0.66	i	-6.2	6	2.5	20	6.4
32	Cc1cccc(N2CCN(Cc3ccc([N+](=O)[O-])o3)CC2)c1C	0.68	i	-0.3	4	-0.4	-11	4.3
33	COc1ccc(S(=O)(=O)NCCSCc2ccco2)cc1C	0.72	i	-0.4	-5	4.3	-3	1.6
34	Cc1cccc(N2CCN(Cc3ccoc3)CC2)c1C	0.62	i	0.1	10	-1.8	5	1.7
35	CCN(CC)C(=O)CC(c1ccc(F)cc1)c1ccco1 (stereo unspecified)	0.69	·	-3.2	-2	-0.3	4	-0.4
36	Cc1cccc(OCCCN2CCOCC2)c1C	0.66	i	-3.0	5	0.8	-2	3.0
37	CC1CC(C)CN(C(=O)c2ccc(-c3ccc([N+](=O)[O-])cc3)o2)C1 (stereo unspecified)	·	i	-3.6	26	-0.6	89*	·
38	Cn1c(=O)oc2cc(S(=O)(=O)NC3CCCc4ccccc43)ccc21 (stereo unspecified)	0.81	i	-1.4	-10	3.2	-4	6.3
39	CCN(CC)C(=O)Cn1cc(S(=O)(=O)CC(=O)Nc2ccc(F)cc2F)c2ccccc21	0.67	i	-3.7	6	1.1	2	3.0
40	O=C1NC(NS(=O)(=O)c2ccccc2)(C(F)(F)F)C(=O)N1CCc1ccccc1 (stereo unspecified)	0.71	i	-2.1	2	-0.5	·	2.6

Quoted at random: two compounds from above
No.	structure	Ecoli growth	FGF22 binding	LANA-H2B inh	Beta2AR agonist	HNF4A DNA FP	ALR H2O2 inh	UCH37 inh
35	CCN(CC)C(=O)CC(c1ccc(F)cc1)c1ccco1 (stereo unspecified)	0.69	·	-3.2	-2	-0.3	4	-0.4
23	COc1cccc(N2CCN(Cc3cccnc3)CC2)c1	0.73	·	2.6	4	-4.6	91*	-1.1

Following part.
No.	structure	Ecoli growth	FGF22 binding	LANA-H2B inh	Beta2AR agonist	HNF4A DNA FP	ALR H2O2 inh	UCH37 inh
41	NS(=O)(=O)c1cccc(NC(=O)COC(=O)COc2ccc3ccccc3c2)c1	0.69	i	5.8	1	-0.6	-5	1.5
42	CC1CC(C)CN(C(=O)COC(=O)CN2C(=O)c3ccccc3C2=O)C1 (stereo unspecified)	0.72	i	6.5	-4	3.7	3	1.5
43	CCCN1CCC(=NNc2ccc(S(=O)(=O)N(CC)CC)cc2[N+](=O)[O-])CC1	0.67	i	0.4	15	-0.2	·	4.0
44	N#Cc1cc(N)ccc1Sc1ccccc1	0.69	·	-4.4	-6	2.3	-32	-19
45	COCCOC(=O)C1=C(C)N(c2ccccc2)C(=O)NC1c1cccc([N+](=O)[O-])c1 (stereo unspecified)	·	i	-2.8	0	-3.1	·	·
46	CCOC(=O)c1nc(C)sc1-c1ccnn1S(=O)(=O)c1ccc(C)cc1	·	i	1.4	4	-2.4	-12	·
47	COc1ccc(C(=O)Cn2c(Br)nc3c2c(=O)n(C)c(=O)n3C)cc1OC	0.72	·	-0.8	3	3.8	-17	-0.8
48	Fc1ccccc1NC(=S)Nc1cccc2cnccc12	0.7	i	0.6	1	0.7	22	5.4
49	COc1ccccc1OCc1ccc(C(=O)NCc2ccco2)o1	0.71	·	1.4	5	-1.8	-9	-0.4
50	COc1cccc(N2CCN(C(=O)c3ccc(CS(=O)c4ccccc4C)o3)CC2)c1 (stereo unspecified)	·	i	0.7	25	-2.4	91*	·
51	O=C(NCC1CCN(S(=O)(=O)c2ccccc2)CC1)Nc1ccc(F)cc1	0.66	i	1.3	-3	-2.8	-3	4.7
52	COc1ccccc1Cc1nc(-c2ccc(C)cc2)no1	0.71	·	-0.5	3	3.7	1	2.8
53	CC1CN(C(=O)c2cc3ccccc3oc2=O)CC(C)O1 (stereo unspecified)	0.67	i	4.7	2	-1.6	-3	2.5
54	CCc1noc(C)c1C(=O)OCC(=O)NC(C)c1ccccc1 (stereo unspecified)	0.71	i	4.5	3	-3.2	-3	3.0
55	Cc1ccc(CNC(=O)CCCC(=O)c2ccccc2)cc1	0.63	i	2.1	-7	-0.2	-5	1.4
56	Cc1ccc(CC2(O)CC(C)N(C)CC2C)c(C)c1 (stereo unspecified)	0.67	·	4.3	2	-0.4	0	0.6
57	O=[N+]([O-])c1ccc2c(c1)C(O)n1nc(-c3ccccc3)nc1S2 (stereo unspecified)	0.69	i	-6.2	-8	6.1	-1	3.1
58	CCOc1ccc(/C=N/NC(=O)c2c(-c3ccccc3)noc2C)cc1	·	i	5.0	-3	-0.9	-6	·
59	COc1cccc(C2=NOC(C(=O)Nc3cccc(C(C)=O)c3)C2)c1OC (stereo unspecified)	0.72	·	·	4	2.9	·	4.1
60	CC(C)CCNC(=O)CSc1nc2ccccc2c(=O)[nH]1	0.67	·	-1.4	-2	-3.1	-6	0.1
61	CCCn1c(N2CCN(CC(=O)Nc3ccc4c(c3)OCCO4)CC2)nc2ccccc21	0.69	·	0.1	-3	-0.9	-1	3.5
62	COc1ccc2nc(NC(=O)C3CCCN(S(=O)(=O)c4cccc5nonc45)C3)sc2c1 (stereo unspecified)	0.76	·	0.4	4	9.0	-2	1.6
63	O=C(NCc1ccc2c(c1)OCO2)c1cc2ccccc2oc1=O	0.76	·	0.0	-2	-3.0	-1	-6.7
64	Brc1ccc(/C=C/C=N/Nc2nc3ccccc3s2)cc1	·	·	2.1	-1	-0.6	-39	·
65	C/C=C/c1ccc(OCCN2C(=O)NC(C)(C)C2=O)c(OC)c1	0.67	·	-8.8	-2	1.6	-16	2.3
66	COc1cc(NC(=O)CCc2c(C)[nH]c(=O)c(C#N)c2C)cc(OC)c1	0.67	i	6.7	-2	-2.7	-3	1.9
67	CSCCC(NC(=O)C12CC3CC(CC(C3)C1)C2)C(=O)OCC(=O)c1ccc(C)cc1 (stereo unspecified)	0.74	i	-3.7	3	1.4	-1	1.1
68	COc1ccc(S(=O)(=O)N2CCC3(CC2)OCCN3S(=O)(=O)c2ccc(C)cc2)cc1OC	0.71	i	-2.8	0	-0.4	0	1.6
69	CCOC(=O)C1(CC)Oc2ccccc2C(c2ccc(OC)cc2)=C1C(=O)OC (stereo unspecified)	0.72	i	·	-4	3.4	·	4.8
70	CNC(=S)Nc1cc(C(=O)N2CCCC2)ccc1N1CCCC1	0.67	i	0.6	-2	-1.2	55	-0.4
71	COC(=O)[C@]1(CC(C)C)N[C@H](c2ccc(SC3CCCCC3)c(OC)c2)[C@@H]2C(=O)N(C)C(=O)[C@@H]21	·	i	-5.0	-9	-3.7	-12	2.5
72	CCC(CC)C(=O)Nc1ccncc1	0.66	·	3.2	·	·	2	0.9
73	O=C(COc1ncnc2ccccc12)NCCc1ccc(F)cc1	0.7	i	-1.4	-4	-1.0	-2	-1.0
74	NNC(=O)c1[nH]c(-c2ccccc2)cc1-c1ccccc1	0.68	i	-2.8	2	-1.2	·	5.0
75	COc1ccc(CC(=O)OC(C)CN2CCOCC2)cc1 (stereo unspecified)	0.69	i	2.2	6	0.5	-6	4.0
76	C=CCN1c2ccccc2C(=O)C(C)S1(=O)=O (stereo unspecified)	0.69	i	·	0	-4.4	·	2.0
77	CC(Sc1nnc(C2CC2)n1C1CC1)C(=O)NCc1cccs1 (stereo unspecified)	0.7	i	·	-9	-1.3	·	1.1
78	CSCCC1NC(=O)N(CC(=O)Nc2c(C(C)C)cccc2C(C)C)C1=O (stereo unspecified)	0.71	i	-2.5	-3	0.2	·	0.9
79	C=CCn1c(=S)[nH]c2nc3c(cc2c1=O)CCCC3	0.64	i	-6.8	-11	-1.8	5	3.9

In a second layout: 2 of the compounds above.
Under each structure – Ecoli growth	FGF22 binding	LANA-H2B inh	Beta2AR agonist	HNF4A DNA FP	ALR H2O2 inh	UCH37 inh
76. C=CCN1c2ccccc2C(=O)C(C)S1(=O)=O (stereo unspecified)
    0.69	i	·	0	-4.4	·	2.0
66. COc1cc(NC(=O)CCc2c(C)[nH]c(=O)c(C#N)c2C)cc(OC)c1
    0.67	i	6.7	-2	-2.7	-3	1.9
